# Marburg entry inh: Marburg virus entry inhibition; Marburg virus pseudotyped entry inhibition, cell reporter; control for the full effect not named in the record; about a third of the inactives were read at about 46 µM; Potency, µM (doses to about 37.8 µM), inactives show at the top dose activity change, negative = inhibition, most hits filed as inhibitors; actives 1.8% (n = 300,000); AID 540276; active = well fitted inhibition curve with a large enough effect; inconclusive = small, poorly fitted or top-dose-only effect, or effect the other way; inactive = flat fitted curve, though single readings scatter; tested in HEK293 cells; about a fifth of its hits are not listed in these tables; note: % is set by controls: 0 for no effect and ±100 for the full control effect; luciferase read-out
# Cruzain noTriton: inhibitors of Trypanosoma cruzi cruzain without detergent; actives 2.3% (n = 200,000); P25779; purified cruzain, Z-FR-AMC fluorescence, no detergent; Potency, µM, for inactives: max response, negative = inhibition, usual class: inhibitors;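 note: plate controls were enzyme without inhibitor for no effect and buffer without enzyme for full effect; nearly all actives have a fitted effect of over 40% in size; top concentration of the series not given in the record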
# Target sequence (P25779 123-467 limits assumed): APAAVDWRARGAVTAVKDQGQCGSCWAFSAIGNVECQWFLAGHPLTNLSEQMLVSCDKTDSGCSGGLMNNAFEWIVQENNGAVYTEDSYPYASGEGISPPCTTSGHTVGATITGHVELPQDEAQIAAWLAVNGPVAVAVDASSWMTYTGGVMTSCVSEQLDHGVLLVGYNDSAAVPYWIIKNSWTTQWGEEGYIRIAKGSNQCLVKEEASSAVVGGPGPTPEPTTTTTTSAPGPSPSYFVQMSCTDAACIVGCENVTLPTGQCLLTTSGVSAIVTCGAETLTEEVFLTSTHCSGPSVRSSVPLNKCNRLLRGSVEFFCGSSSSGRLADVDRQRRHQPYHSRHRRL
#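 Detergent-free condition (0.00005% Triton X-100) in acetate buffer pH 5.5 with DTT. 1.5 nM enzyme and compound were pre-mixed 15 min, then 2 uM Z-FR-AMC substrate added; reaction progress from fluorescence change between first and third reads (60 s).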
# RE007 growth inh: less growth of the S. pombe RE007 Vpr strain | actives 0.21% (n = 360,000) | S. pombe RE007 Vpr strain, BacTiter-Glo ATP luminescence, 24 h; control for the full effect not named in the record | Potency, µM (series often up to 92.2 µM), inactives show top-dose activity change, negative = less growth; active = well fitted falling curve with a large enough effect; inconclusive = small, poorly fitted or top-dose-only effect; inactive = no such curve, though single readings can be large or run the other way;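 note: % is set by controls: 0 for no effect and ±100 for the full control effect; nearly all actives have a fitted effect of over 50% in size; the assay follows cell death caused by Vpr and the record does not say whether a fall means rescue or toxicity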
#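 Fission yeast RE007 carrying one integrated HIV-1 vpr copy, seeded at OD 0.01 in PMG+AL medium with 23 nL pinned compound. Grown 24 h at 30 degrees; viability read by BacTiter-Glo luminescence after 5 min.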
# Cruzain inh Det: inhibitors of Trypanosoma cruzi cruzain with detergent. AID 1478. Potency, µM, without a hit: max response, negative = inhibition, most hits filed as inhibitors. P25779. purified cruzain, Z-FR-AMC fluorescence, 0.01% Triton. actives 0.43% (n = 200,000);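 note: plate controls were neutral wells for no effect and buffer without enzyme for full effect; nearly all actives have a fitted effect of over 40% in size; top concentration of the series not given in the record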
#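 Detergent-containing arm of a paired screen for aggregation-based inhibition: 0.01% Triton X-100 present. Cruzain at 1.5 nM cleaved 2 uM Z-FR-AMC at pH 5.5 with 5 mM DTT; AMC fluorescence gain over 60 s measured activity.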
# LASV entry inh: Lassa virus entry inhibition. Lassa virus pseudotype entry inhibition, cell reporter; control for the full effect not named in the record. Potency, µM (doses to about 37.9 µM), for the others: top-dose activity change, negative = inhibition, hits mostly inhibitors. actives 1.2% (n = 300,000); active means well fitted inhibition curve with a large enough effect; inconclusive means small, poorly fitted or top-dose-only effect, or effect the other way; inactive means flat fitted curve, though single readings scatter; tested in HEK293 cells; note: % is set by controls: 0 for no effect and ±100 for the full control effect; nearly all actives have a fitted effect of over 50% in size; luciferase read-out
# NS1 inh: inhibitors of influenza NS1 protein function. S. cerevisiae slowed by influenza A NS1, growth recovery by OD600. Potency, µM (highest dose often 46.1 µM), for inactives: at the highest dose activity, positive = more growth. actives 0.4% (n = 270,000). AID 2326; active means well fitted rising curve with a large enough effect; inconclusive means small, poorly fitted or top-dose-only effect; inactive means no such curve, though single readings can be large or run the other way; note: nearly all actives have a fitted effect of over 50% in size
#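 Growth recovery, yeast-based: influenza A NS1 expressed in S. cerevisiae causes slow growth, and suppressors are detected by OD600. The parent strain without NS1 is used as positive control.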
# 2A StopGo: FMDV 2A StopGo reporter, luciferase signal; human cells with a luciferase reporter of 2A StopGo recoding; control for the full effect not named in the record; Potency, µM (titrated, usually from 57.9 µM), inactives show at the highest dose signal change, negative = less light; actives 1.2% (n = 410,000); AID 1159524; active = well fitted falling curve with a large enough effect; inconclusive = small, poorly fitted or top-dose-only effect; inactive = no such curve, though single readings can be large or run the other way; tested in HEK293T cells; note: % is set by controls: 0 for no effect and ±100 for the full control effect; nearly all actives have a fitted effect of over 45% in size; luciferase light after 4 h
# SARS PLpro yeast: SARS-CoV PLP inhibition in yeast; S. cerevisiae expressing SARS-CoV PLpro, growth rescue; control for the full effect not named in the record; Potency, µM (doses to about 32.9 µM), inactives show at the highest dose activity, positive = growth rescue; actives 0.19% (n = 330,000); AID 485353; active means well fitted rising curve with a large enough effect; inconclusive means small, poorly fitted or top-dose-only effect; inactive means no such curve, though single readings can be large or run the other way; note: 0% is about no effect; nearly all actives have a fitted effect of over 55% in size; growth read by luminescence after 48 h
# An asterisk follows results filed as active; ? = inconclusive; · = no result given; & = joins results of further samples; [ ] = remark or other dose. Unless noted, calls come from the whole dose curve; as a rule, active = well fitted curve in the direction sought with a large enough effect; inconclusive = small, poorly fitted or top-dose-only effect, or another doubt; inactive = no such curve, though single readings can be large; an effect the other way counts as inactive or inconclusive. Potency is the fitted concentration of half-maximal effect. Hits appear at their usual frequency; 4.5% or so of the library scored in one or more.
SMILES,Marburg entry inh,Cruzain noTriton,RE007 growth inh,Cruzain inh Det,LASV entry inh,NS1 inh,2A StopGo,SARS PLpro yeast
COCCOC(=O)C1=C(N)Oc2c(oc(CO)cc2=O)C1c1ccccc1F (stereo not given),-5%,9%,9%,2.8%,-9%,?,15%,-1%
Cc1cccc(Nc2nc(N3CCN(C)CC3)nc(N)c2[N+](=O)[O-])c1,-1%,2%,-25%,-7.3%,16%,-8%,-16%,23%
CCOc1ccc(NC(=O)CSc2ncc3c(n2)-c2cc(Cl)ccc2N(C)S3(=O)=O)cc1,·,-7%,·,2.4%,-14%[46.1 µM],·,-3%,·
Cc1ccc(NC(=O)COC(=O)c2ccc3c(c2)OCCO3)cc1S(=O)(=O)N1CCOCC1,14%[46.1 µM],·,-7%,·,-2%,·,19%,1%
CC(=O)Nc1cccc(-n2nnc(SCC(=O)Nc3ccc(F)c(Cl)c3)n2)c1,-7%[14.2 µM],·,4%,·,-29%,4%,-20%,-1%
CCN1CCC(O)(C(C(=O)OC)c2ccccc2)CC1 (stereo not given),-18%[46.1 µM],·,9%,·,-5%[46.1 µM],·,6%,·
C#CCOCCOCCOCCNc1nc(N2CCN(C(=O)[C@H]([C@@H](C)O)n3cc(CCCCN)nn3)CC2)nc(N2CCN(C(=O)[C@H](Cc3ccc(O)cc3)n3cc(CCO)nn3)CC2)n1,1%,12%,2%,-1.9%,13%,-33%,9%,7%
CCN(CC)S(=O)(=O)c1ccc(NC(=O)COC(=O)c2ccc(-n3nc(C)cc3C)cc2)cc1,-16%,5%,15%,6.1%,1%,21%,-7%,1%
CCOc1cc(/C=C2\N=C(C)OC2=O)cc(Cl)c1OCC(=O)OC,3%[46.1 µM],·,3%,·,2%,·,-10%,·
CCc1ccc(-c2[nH]c3c(c2-c2sc(C)c(C(=O)OC)c2O)c(=O)n(C)c(=O)n3C)cc1,-4%[46.1 µM],-3%,·,-1.1%,-12%[46.1 µM],·,-14%,·
O=C(Nn1cnnc1)c1ccc(Br)s1,0%,-6%,1%,-4.5%,1%,4%,-1%,?
COc1ccc(CC(=O)NCc2n[nH]c(=S)n2C)cc1,-13%[46.1 µM],·,-11%,·,10%[46.1 µM],10%,3%,2%
Cc1cc(Br)ccc1SCC(=O)OCC(=O)N1CCN(C(=O)c2ccco2)CC1,-4%&-4%,?,-17%,-17%,0%,-47%,-8%,-2%
CSc1ncc(C(=O)O)c(C)n1,·,-1%,-13%,4.3%,·,-4%,-23%,-1%
COc1cccc(C(=O)Nc2ccc(C(=O)NCC(C)C)cc2)c1,·,·,7%,·,·,-3%,7%,1%
Cc1ccc(Cl)cc1NC(=O)COC(=O)c1ccc(COc2ccc3c(C)cc(=O)oc3c2)cc1,8%,7.9µM*,·,-1.4%,-13%,-13%,·,-14%
O=C(Nc1ccccc1)c1nnn(Cc2ccccc2)c1NC(=O)C(F)(F)F,?,2%,2%,1.0%,11%,-9%,19%,-20%
Cc1c(NC(=S)NC(=O)Cc2ccccc2)cccc1C(=O)O,15%,1%,9%,1.9%,14%,12%,57%[activator],2%
CC1(C(=O)N(Cc2ccccc2)Cc2ccccc2)CC1(Br)Br (stereo not given),-40%,-9%,4%,-6.2%,?,-16%,?,-44%
COC(=O)C1=C(C)NC(C)=C(C(=O)OC)C1C(=O)OCc1nnc(-c2ccccc2)o1,-8%,·,4%,·,-2%,·,-22%,-12%
COc1ccc2c(CC(=O)OCC(=O)Nc3cc(C)c(C)cc3[N+](=O)[O-])coc2c1,?,2%,8%,-6.2%,-6%,2%,-16%,7%
CC(C)CC(=O)NC1CC(=O)N(c2ccc3c(c2)OCCO3)C1 (stereo not given),·,1%,·,-1.6%,22%[46.1 µM],·,-20%,·
CC(C)c1ccc(NC(=O)c2ccccc2NC(=O)C2CCCCC2C(=O)O)cc1 (stereo not given),15%[46.1 µM],·,8%,·,0%[46.1 µM],17%,10%,-1%
Cc1cc(C)nc(Sc2ccc(/C=C(\C#N)C(=O)Nc3ccccc3)o2)n1,14%,-8%,-10%,-2.0%,2%,1%,·,3%
O=C(CSc1ncc2c(n1)-c1ccc(Cl)cc1N(Cc1ccccc1)S2(=O)=O)Nc1ccc(F)c(F)c1,·,-3%,·,3.0%,?,·,-18%,·
CS(=O)(=O)N1CCc2cc(S(=O)(=O)Nc3ccc4oc5c(c4c3)CCCC5)ccc21,-12%,?,13%,-5.8%,-28%,-69%,·,6%
COC(=O)c1ccc(Cl)c(NC(=O)c2ccc(-c3ccccc3)cc2)c1,-3%,?,·,6.6%,·,10%,·,5%
S=C(NCc1cccnc1)Nc1ccc(Cl)cc1Cl,2%[46.1 µM],·,-9%,·,1%,0%,19%,-1%
COc1ccccc1N1CCN(C(=O)c2ccc(NC3=NC4CS(=O)(=O)CC4S3)cc2)CC1 (stereo not given),·,·,2%,·,·,-21%,?,-6%
O=C(CSc1nnnn1C1CCCC1)Nc1ccc2c(c1)OCO2,15%,11%,7%,-0.1%,?,-14%,24%,11%
CC(C)N(Cc1cnn(C)c1)C(=O)c1ccc(OC2CCN(Cc3ccccn3)CC2)cc1,·,·,1%,·,·,3%,-13%,-5%
O=C(CNC(=O)c1ccccc1F)N/N=C/c1cn[nH]c1-c1ccccc1,-9%[46.1 µM],2%,0%,-3.0%,-29%,-4%,-6%,8%
COc1ccc(CNC(=O)CSc2ncc3c(n2)-c2ccc(Cl)cc2N(Cc2ccc(F)cc2)S3(=O)=O)cc1OC,·,5%,·,-0.3%,21%[46.1 µM],·,?,·
CCCSc1nc(SCC(=O)NCc2ccccc2)c2c3c(sc2n1)COC(C)(CC)C3 (stereo not given),?,-8%,-4%,1.9%,-16%,1%,1%,5%
COc1cccc(NC(=O)CN2CCN(c3ccccc3F)CC2)c1,1%[46.1 µM],-3%,-17%,1.8%,-22%,-8%,-11%,1%
COc1ccc(CC(=O)Nc2c3c(nn2-c2ccccc2C)CS(=O)C3)cc1 (stereo not given),0%,-12%,-8%,1.3%,-2%,-7%,-6%,12%
COc1ccccc1NS(=O)(=O)c1ccc2oc(SCc3ccc(F)cc3)nc2c1,?,-6%,-15%,-1.4%,?,11%,?,10%
CCCC(C)C1C(C#N)=C(N)Oc2c1c(=O)oc1ccccc21 (stereo not given),0%,-1%,32%,7.3%,14%,?,-4%,1%
CC(=O)C1=C(C)NC(SCC(N)=O)=C(C#N)C1c1cccnc1 (stereo not given),-1%,-12%,3%,1.2%,9%,-4%,·,4%
Cc1cc(C)c(NC(=O)C(C)Sc2nc3ccc(N4C(=O)c5ccccc5C4=O)cc3s2)c(C)c1 (stereo not given),11%,6.3µM*,-9%,-0.4%,6%,10%,1%,7%
Cc1ccc(CCNC(=O)C2CCC(CNc3c(N4CCCC4)c(=O)c3=O)CC2)cc1 (stereo not given),?,4%,5%,-0.7%,9%,-2%,-24%,-2%
O=C(Cn1cncc1-c1ccc([N+](=O)[O-])cc1)Nc1ccccc1F,-19%,?,-3%,-21%,?,21%,-4%,-1%
O=C(c1ccccc1)c1ccc(OCC(O)CNCc2cccc(Cl)c2)cc1 (stereo not given),?,·,-14%,·,-15%,-5%,7%,0%
O=C(N/N=C/c1c[nH]c2ccccc12)c1ccccc1,·,·,-1%,·,·,-8%,23%,-10%
COc1ccc(CCNC(=O)COC(=O)CCC(=O)c2ccc(F)cc2)cc1,4%[46.1 µM],·,-3%,·,2%,·,2%,4%
Cc1cccc(OCC(=O)Nc2ccccc2C(=O)N2CCOCC2)c1,?,10%,-10%,-2.3%,9%,-3%,-3%,4%
C/C(=N/n1cnnc1)c1cccnc1,-1%,3%,11%,2.6%,7%,-2%,-1%,1%
C=CCSc1nnc(NC(=O)c2cccc(S(=O)(=O)N(C)c3ccccc3)c2)s1,-23%,?,-9%,-9.0%,-8%,16%,1%,5%
COc1ccc(C2NC(=S)NC3=C2CCc2cc(OC)ccc23)cc1 (stereo not given),-22%,?,12%,-1.8%,1%,20%,-1%,5%
CCCC(C)NS(=O)(=O)c1ccccc1 (stereo not given),2%,4%,-17%,-0.3%,12%,-9%,·,4%
CCc1nc2cc([N+](=O)[O-])c([N+](=O)[O-])cc2[nH]1,-4%,-3%,-3%,-3.9%,0%,-15%,-24%,0%
CC(C)Cn1cnc2c(SCc3ccccc3)nc(N)nc21,?,·,2%,·,-22%[46.1 µM],·,16%,·
COC(=O)c1c(C)noc1-c1ccc(Cl)cc1,·,·,-14%,·,·,-1%,5%,-8%
COc1ccc(Sc2nc(-c3ccccc3)ncc2C(=O)O)cc1,-28%[46.1 µM],·,-24%,·,2%,·,-9%,1%
CCOC(=O)c1cc(=O)[nH]c2ccccc12,2%[46.1 µM],·,8%,·,-6%,0%,9%,0%
COc1cc2nc(SCc3ccc(Cl)cc3Cl)n(Cc3cccs3)c(=N)c2cc1OC,-26%,7.9µM*,0%,0.3%,9%,?,-28%,-8%
CCCCN(C(=O)c1cc(=O)[nH]c2ccccc12)c1c(N)n(CCCC)c(=O)[nH]c1=O,-14%,·,1%,·,-4%,0%,?,-4%
COc1cccc(CN2CCCC(C(=O)c3ccccc3SC)C2)c1O (stereo not given),·,·,-3%,·,·,-1%,?,0%
CC(NC(=O)CSc1nc2ccccc2c(=O)[nH]1)c1ccccc1 (stereo not given),9%,?,17%,-1.9%,10%,13%,-13%,3%
COC(=O)c1cc(NC2c3ccccc3C(=O)N2CCN2CCOCC2)cc(C(=O)OC)c1 (stereo not given),0%,15%,-6%,-3.4%,·,-10%,0%,-2%
CCOC(=O)c1c(NC(NC(=O)C(C)C)C(Cl)(Cl)Cl)sc2c1CCC2 (stereo not given),11µM*,6%,6%,-8.3%,?,-4%,?,-30%
CCOC(=O)c1oc2nc3c(cc2c1N)COC(C)(C)C3,22%,15%,1%,-3.5%,5%,3%,47%[activator],-1%
